# Beta apoptosis: beta cell apoptosis inhibition; protection from apoptosis, % (no concentration beside the values); actives 0.8% (n = 300,000); INS-1E cytokine-induced death, ATP luminescence, 48 h; percent of positive-control rescue, neutral wells zero;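 active means all replicates at 75% or more, or half of them and the mean; inconclusive means half reach 75% but not the mean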;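 further: 0% = cytokine-treated negative control wells and 100% = positive control rescue; higher means more ATP so stronger rescue from cytokine killing; wells of about 40 µL received 100 nL stock; the first replicate is given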
# Bfl-1 A1 inh: inhibitors of the anti-apoptotic protein A1, read as caspase activation; MEF A1-2A-BIM cells, Caspase-Glo 3/7 luminescence, 3 h; percent of clofoctol response, vehicle zero; actives 0.066% (n = 330,000); caspase activation, % (no concentration beside the values);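 active means over half of replicate activation scores above 10%, or exactly half above 10 with the replicate mean above 10; inconclusive means replicate mean below 10 yet half the replicates above 10; inactive means over half of replicates below 10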;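 further: wells of about 30 µL received 50 nL stock; many hits fall short of the cut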
# LANA-H2B inh: blocks KSHV LANA binding to histone H2A/H2B | actives 0.6% (n = 320,000) | AID 2629 | cell-free LANA-H2A/H2B peptide, fluorescence polarization | inhibition, % (concentration not given with the values); in the data active means inhibition mostly above about 10%, no sharp cut-off; inactive means mostly below about 6.7%;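 further: stock transfer was 7.5 nL into about 10 µL; 0% = median of vehicle wells and 100% = median of positive control wells; one replicate is shown; the record names a cut of 25% in any replicate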
# Target sequence (Q9QR71 whole entry, looked up): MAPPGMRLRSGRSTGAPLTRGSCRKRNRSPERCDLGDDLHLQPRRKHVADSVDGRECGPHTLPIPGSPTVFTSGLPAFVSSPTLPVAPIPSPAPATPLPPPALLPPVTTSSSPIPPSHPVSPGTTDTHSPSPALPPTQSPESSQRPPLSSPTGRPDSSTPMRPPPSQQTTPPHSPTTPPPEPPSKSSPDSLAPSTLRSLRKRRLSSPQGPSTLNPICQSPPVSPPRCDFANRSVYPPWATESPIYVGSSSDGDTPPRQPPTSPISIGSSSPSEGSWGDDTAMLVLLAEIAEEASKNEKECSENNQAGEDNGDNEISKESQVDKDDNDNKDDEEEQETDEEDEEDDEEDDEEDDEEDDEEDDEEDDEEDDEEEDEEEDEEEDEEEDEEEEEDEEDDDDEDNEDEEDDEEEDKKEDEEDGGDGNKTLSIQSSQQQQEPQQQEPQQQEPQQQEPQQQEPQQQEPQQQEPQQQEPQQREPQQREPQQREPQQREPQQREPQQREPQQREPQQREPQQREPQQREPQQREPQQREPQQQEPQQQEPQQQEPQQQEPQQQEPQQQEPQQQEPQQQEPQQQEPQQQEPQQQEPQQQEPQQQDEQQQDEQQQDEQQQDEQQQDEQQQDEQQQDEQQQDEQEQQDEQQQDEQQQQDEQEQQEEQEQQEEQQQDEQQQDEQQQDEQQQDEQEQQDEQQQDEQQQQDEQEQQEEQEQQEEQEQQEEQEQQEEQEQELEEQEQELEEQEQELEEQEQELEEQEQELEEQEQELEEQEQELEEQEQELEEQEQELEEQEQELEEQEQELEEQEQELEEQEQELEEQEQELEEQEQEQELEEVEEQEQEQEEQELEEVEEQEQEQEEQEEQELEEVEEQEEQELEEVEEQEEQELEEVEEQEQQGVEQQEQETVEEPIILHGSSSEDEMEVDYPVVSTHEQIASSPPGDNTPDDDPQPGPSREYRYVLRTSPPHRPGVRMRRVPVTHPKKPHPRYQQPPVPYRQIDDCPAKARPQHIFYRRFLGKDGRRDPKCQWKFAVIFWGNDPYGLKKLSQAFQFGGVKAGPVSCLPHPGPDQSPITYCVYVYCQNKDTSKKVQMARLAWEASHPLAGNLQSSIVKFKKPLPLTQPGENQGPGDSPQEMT
# Calb FLC: affects C. albicans growth with fluconazole; actives 0.57% (n = 300,000); AID 1979; growth inhibition, % (concentration not given with the values); C. albicans CaCi-2 (fluconazole-resistant clinical isolate) + fluconazole, Alamar Blue growth, 48 h;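 active means most replicates above 75%; inconclusive means exactly half above 75%; inactive means most below 75%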;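 further: all wells also contain fluconazole at 8 µg/ml as a sub-toxic cotreatment; 0% = median of DMSO wells and 100% = median of geldanamycin control wells; wells of about 8 µL received 7.5 nL stock; the first replicate is given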
# RanGTP-Impb inh: disruptors of Ran-importin-beta complex formation – biochemical, FRET, CFP-Ran, YFP-importin-beta, homogeneous, primary screen; cell-free CFP-Ran/YFP-importin-beta FRET ratio; AID 2216; inhibition, % (concentration not given with the values); actives 1.1% (n = 300,000);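 active means most replicates above 15%; inconclusive means exactly half above 15%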;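 further: 0% = DMSO wells and 100% = Ran loaded with GDP instead of GTP; wells of about 40 µL received 100 nL stock; the first replicate is given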
# UCH37 inh: human UCH37 deubiquitinating enzyme inhibition. Q9Y5K5. purified proteasome/UCH37, Ub-AMC cleavage fluorescence. inhibition, % (concentration not given with the values). actives 0.33% (n = 330,000);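 active means mean of two replicates above 20%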;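 further: 0% = compound-free wells with enzyme and 100% = wells lacking proteasome; stock transfer was 100 nL into about 20 µL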
#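 system = Proteasome-associated human UCH37 deubiquitinase | amount = 0.15 nM proteasome as dispensed | medium = pH 7.4 Tris-HCl (50 mM) with ovalbumin, ATP-MgCl2, DTT | incubation = 30 min preincubation with enzyme, 25 min cleavage at room temperature | detection = AMC fluorescence 355/460 nm | read-out basis = percent inhibition | controls = no-proteasome and no-compound wells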
# Beta2AR agonist: activates human beta-2 adrenergic receptor causing internalization. P07550. Am2.2-beta2AR cells, FAP receptor internalization, flow cytometry; reference of the scale not given here. response, % (concentration not given with the values). actives 0.43% (n = 340,000). AID 504454;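 active means response above a set limit, near 3 SD of response in nonfluorescent compounds, cut at about 42% in these data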;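 further: stock transfer was 100 nL into about 11 µL; a reference agonist was the positive control; negative values mostly stem from fluorescent compounds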
# T cruzi inh: T. cruzi replication inhibition. actives 1.4% (n = 300,000). inhibition, % (no concentration beside the values). T. cruzi beta-gal in NIH3T3, luminescence, 90 h;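 active means mean inhibition across valid replicates above about 55%, limit read from the data; inconclusive means mean below that limit but half or more replicates reach it; inactive means mean below it, under half of replicates reach it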;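 further: signal also drops with host cell toxicity which is not excluded here; 0% = plate median of DMSO wells and 100% = zero luminescence signal; higher percent means less beta-gal luminescence so fewer parasites; stock transfer was 50 nL into about 50 µL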
# * = called active by the depositor; ? = inconclusive; / = not tested or not shown.
SMILES,Beta apoptosis,Bfl-1 A1 inh,LANA-H2B inh,Calb FLC,RanGTP-Impb inh,UCH37 inh,Beta2AR agonist,T cruzi inh
COc1ccc(-c2oc(=O)c3cc(OC)c(OC)cc3c2C#CCCO)cc1,17,-0.7,-1.7,/,/,/,12,/
CC(Cc1c[nH]c2ccccc12)C(=O)NCc1ccco1 (configuration not stated),/,0.8,-2.9,-8,4.0,0.5,10,-10
CCOC(=O)Nc1cc(NC(=O)OCC)c(C)nc1C,-6,0.4,3.5,3,1.2,-0.4,-1,-4
Cc1c(NC(=S)NC(=O)C(C)(C)C)cccc1[N+](=O)[O-],0,-0.2,-1.6,0,0.6,6.3,0,-24
CC(=O)Nc1cccc(OCCCNS(=O)(=O)c2ccc(F)cc2)c1,-6,0.3,-1.9,-6,0.1,2.3,1,/
CCO[C@H]1OC(C(=O)NCc2nc3ccccc3[nH]2)=C[C@@H](C2CCCCC2)[C@@H]1CCCO,-12,-0.4,18*,-2,-0.9,0.3,-7,3
S=c1nc[nH]c2c1cnn2Cc1ccccc1,-3,-0.2,-4.8,94*,4.0,-0.3,9,-16
Cc1cc(S(=O)(=O)N2CCN(c3ccccn3)CC2)ccc1F,3,0.6,-7.1,-13,3.9,1.9,-4,-4
COc1ccc(Cn2c(=O)[nH]c3cc(C(=O)N4CCN(c5ccccc5F)CC4)ccc3c2=O)cc1,4,0.3,-0.9,-2,-3.3,0.1,2,2
CCOc1cccc(=O)c2c(C)n(-c3ccc(C(=O)O)cc3)c(C)c12,-1,0.3,4.4,13,1.3,6.9,4,-4
COc1ccc(C(=O)Nc2nnc(Cc3cccs3)s2)cc1OC,/,0.7,-2.9,1,-6.2,2.6,3,1
O=C(NCc1ccccc1)C1=C[C@@H](c2ccc(Br)cc2)C[C@@H](OCc2ccc(CO)cc2)O1,-6,0.0,-9.3,4,?,1.2,8,37
O=C(CCS(=O)(=O)c1ccccc1)Nc1nc2c(s1)COc1ccccc1-2,-15,-0.1,0.6,-1,?,-0.6,59*,-65
CCOc1ccc(NC(=S)NC(=O)/C=C/c2ccc(C)cc2)c([N+](=O)[O-])c1,71,17*,-2.6,-3,1.8,11,7,25
CC(C)(C)OC(=O)N1CCC(c2c(C(=O)NCC3CCN(C4CCCC4)C3)cnn2-c2ccccc2)CC1 (configuration not stated),0,-0.6,0.9,-4,-0.7,/,-17,21
CCn1nc(C)c(CN2CCC(Oc3ccc(C(=O)N4CCCC4)cc3)CC2)c1C,1,-0.1,4.7,-3,2.2,1.4,0,22
COc1cc2cc(CCOC(=O)c3ccc(C#N)cc3)oc(=O)c2cc1OC,-11,0.4,-5.4,/,/,-1.2,-1,/
C/C(=N\N(C)C)C1=C(O)c2ccccc2C1=O,-6,-1.3,5.4,6,-0.5,/,-6,5
COc1ccc(C2C3=C(CC(C)(C)CC3=O)Oc3ncn(Cc4ccccc4)c(=N)c32)cc1 (configuration not stated),10,-0.8,-1.7,26,2.3,2.8,10,17
Cc1cccc(C(=O)Oc2c(Br)cc(Br)cc2/C=N/NC(=O)c2ccncc2)c1,-5,-0.1,-1.1,31,-1.7,/,-3,-1
Cc1ccc(F)c(NC(=O)C2CCCCC2C(=O)O)c1 (configuration not stated),-2,-0.1,5.6,1,-8.8,-3.8,1,-33
Cc1ccc(N(CC(=O)N2CCOCC2)S(C)(=O)=O)cc1Cl,-7,1.2,-3.4,-10,4.3,0.8,-1,-9
O=C(NC1CCCCC1)N1CCCCCCC1,-1,0.4,9.3,-18,-0.7,5.3,-15,-4
O=C(Nc1cccc(Br)c1)c1ccccc1-c1ccccc1,3,2.1,/,-21,-4.7,-1.6,16,16
CC(C)(C)c1ccc(C(=O)CSc2n[nH]c(=O)[nH]c2=O)cc1,4,-0.5,-4.4,5,-5.7,-1.1,3,-4

# Given with tabs: 6 of the compounds above
canonical_smiles	Beta apoptosis	Bfl-1 A1 inh	LANA-H2B inh	Calb FLC	RanGTP-Impb inh	UCH37 inh	Beta2AR agonist	T cruzi inh
COc1ccc(Cn2c(=O)[nH]c3cc(C(=O)N4CCN(c5ccccc5F)CC4)ccc3c2=O)cc1	4	0.3	-0.9	-2	-3.3	0.1	2	2
CCOc1cccc(=O)c2c(C)n(-c3ccc(C(=O)O)cc3)c(C)c12	-1	0.3	4.4	13	1.3	6.9	4	-4
COc1ccc(C(=O)Nc2nnc(Cc3cccs3)s2)cc1OC	/	0.7	-2.9	1	-6.2	2.6	3	1
O=C(NCc1ccccc1)C1=C[C@@H](c2ccc(Br)cc2)C[C@@H](OCc2ccc(CO)cc2)O1	-6	0.0	-9.3	4	?	1.2	8	37
O=C(CCS(=O)(=O)c1ccccc1)Nc1nc2c(s1)COc1ccccc1-2	-15	-0.1	0.6	-1	?	-0.6	59*	-65
CCOc1ccc(NC(=S)NC(=O)/C=C/c2ccc(C)cc2)c([N+](=O)[O-])c1	71	17*	-2.6	-3	1.8	11	7	25

# (list continues)
SMILES,Beta apoptosis,Bfl-1 A1 inh,LANA-H2B inh,Calb FLC,RanGTP-Impb inh,UCH37 inh,Beta2AR agonist,T cruzi inh
C=CCn1c2ccccc2c2nn(C)c(=S)nc21,1,-0.5,2.6,10,3.4,5.7,2,6
CCC(C)NC(=O)C1CCC(CNS(=O)(=O)c2ccc3c(c2)CC(C)N3C(=O)C2CC2)CC1 (configuration not stated),6,-0.6,3.6,25,4.6,-0.4,-11,8
O=C(N/N=C/c1cccc(O)c1)c1cc(C2CC2)nc2ccccc12,/,-0.6,-2.7,0,-0.4,/,1,2
Cc1ccc(S(=O)(=O)N2CCC(=O)N(CCOC(=O)Nc3ccccc3C)CC2)cc1,-9,-2.3,-6.8,16,-14,3.1,1,8
CCOc1ccc(NC(=O)CN(C)C(=O)CCN2C(=O)C3CC=CCC3C2=O)cc1OCC (configuration not stated),-1,-0.1,2.6,/,/,1.5,-6,/
O=c1c2ccccc2nc2n1C(CSCc1ccc(Cl)cc1)CS2 (configuration not stated),30,0.7,0.8,0,3.2,5.5,4,-2
O=C(COC(=O)c1cccc(C(F)(F)F)c1)NC(=O)NC1CCCC1,-5,-0.1,-0.8,/,/,2.0,-5,/
N#Cc1ccccc1OCC(=O)OCC(=O)NC1CCS(=O)(=O)C1 (configuration not stated),-4,-0.3,0.8,/,/,2.1,-2,/
c1ccc2c(c1)OCCc1c-2[nH]c2ccccc12,-1,0.8,-1.7,-5,0.5,-40,-13,-8
CCOC(=O)Cn1c(=O)n(CC(=O)OCC)c2ccccc21,-5,2.2,3.3,-2,0.4,0.5,0,-9
CC(OC(=O)CN(C)S(=O)(=O)c1ccc(Cl)cc1)C(=O)Nc1ccc(N2CCOCC2)cc1 (configuration not stated),/,/,/,7,-1.1,0.2,-6,-10
S=c1[nH]nc(-c2cc(-c3ccco3)[nH]n2)n1-c1ccccc1Cl,0,-1.7,10,-1,2.5,2.4,2,7
O=C(CN1CCOCC1)Nc1cccc([N+](=O)[O-])c1,-1,0.6,-0.4,-3,-0.1,2.1,-5,-11
CC1CCc2c(C(=O)N3CCN(S(=O)(=O)c4cccs4)CC3)csc2C1 (configuration not stated),-3,0.0,-7.0,4,-0.3,6.2,-7,0
Cc1ccc(Nc2ccc(NCc3ccccc3)nn2)cc1C,35,0.2,0.7,-4,2.7,0.8,6,31
C=CCn1c(SCC(=O)NCCc2ccccc2)nc2c([nH]c3ccccc32)c1=O,-5,1.6,-3.0,/,/,-0.9,-1,-7
O=C(COC(=O)c1ccc(O)cc1)NCC1COc2ccccc2O1 (configuration not stated),-3,-1.2,-0.1,/,/,4.6,8,/
CCOc1ccc2nc(SCC(=O)NCc3ccccc3OC)[nH]c2c1,3,-0.2,-4.1,3,-0.3,0.2,-6,23
Cc1ccc(N2CCN(C(=O)N3CCOCC3)CC2)cc1C,6,-1.1,3.1,9,-3.0,5.1,0,-14
COc1cc(C=O)ccc1OCCOc1ccccc1[N+](=O)[O-],2,-0.3,3.7,-3,?,3.2,1,-20
Cc1cc(C(=O)NCC2CCCO2)n(-c2ccccc2)n1 (configuration not stated),-6,-0.4,-0.9,-3,2.3,0.9,0,-10
Cc1ccc(N2C(=O)Nc3cc(Cl)c(Cl)cc3N2O)cc1Cl,0,0.0,-4.5,-13,0.8,2.1,1,8
Cc1nc2sc(C(c3ccc(Cl)cc3)N3CCN(CCO)CC3)c(O)n2n1 (configuration not stated),-7,0.7,4.5,-3,-1.0,2.0,-10,-13
O=C(NCc1cn(-c2ccccc2)nc1-c1ccccc1)c1ccc([N+](=O)[O-])cc1,6,-0.6,0.7,-9,-1.8,2.0,-3,35
Cc1cc(NC(=O)CN2CCOCC2)n(-c2ccccc2)n1,-1,0.4,8.0,-36,2.4,-0.7,6,-4
# (list continues)
SMILES,Beta apoptosis,Bfl-1 A1 inh,LANA-H2B inh,Calb FLC,RanGTP-Impb inh,UCH37 inh,Beta2AR agonist,T cruzi inh
CCCC(=O)NC(Nc1ccc(S(=O)(=O)Nc2cc(C)on2)cc1)(C(=O)OCC)C(F)(F)F (configuration not stated),-8,-0.3,2.4,2,?,-1.0,-3,-15
O=C(c1ccco1)N1CCN(Cc2nc(-c3cccs3)no2)CC1,5,-0.6,-2.1,-2,-0.5,6.7,-2,3
COc1ccc(-c2noc(CCCC(=O)NC3CCCC3)n2)cc1OC,-3,0.1,-1.2,/,0.4,2.4,-5,-6
Cc1nn(C(C)C(=O)NCc2ccccc2F)c(=O)c2nn(-c3ccccc3)c(C)c12 (configuration not stated),-5,0.3,0.2,11,-5.1,1.1,2,-11
Cc1cc(=S)cc(C)n1CCCO,-6,0.8,-3.7,-4,1.5,3.9,5,-15
O=C(NCc1ccccc1)C(c1ccco1)N(C(=O)c1csnn1)c1ccccc1 (configuration not stated),-4,-0.3,-5.4,-11,1.8,-0.1,1,-1
O=C(Nc1nccs1)c1csc2c1CCCC2,-6,-1.0,-2.9,2,5.4,-0.2,-13,4
O=C(NCc1ccc2c(c1)OCO2)C(=O)NCC1CCCO1 (configuration not stated),-5,1.7,-2.1,21,-2.4,-2.9,2,-5
COc1cccc(/C=N/NC(=O)c2c(-c3ccccc3)noc2C)c1,2,-0.5,-1.4,-1,2.5,/,0,-5
COc1ccc(CCN(C)C(=O)CSc2ncnc3sccc23)cc1OC,1,1.0,2.7,?,?,0.0,-6,-5
O=c1cc(-c2ccccc2F)nc(-c2ccccc2F)o1,-2,2.6,-2.8,11,2.4,-0.5,6,-8
CCCc1ccc2oc(C(=O)N(Cc3nccn3C)C(C)C)c(C)c2c1,3,1.4,-1.0,3,-3.1,3.5,2,13
O=C(N[C@@H](Cc1ccc(O)cc1)C(=O)O)C(c1ccccc1)c1ccccc1,0,1.2,0.0,0,-1.0,1.1,-3,0
CC(CCc1ccccc1)NC(=O)COC(=O)c1ccccc1O (configuration not stated),-2,0.3,1.5,1,3.9,0.4,-1,7
CCN(CC)S(=O)(=O)c1cccc2c(N(C)C)cccc12,-1,0.4,-0.8,1,1.4,-20,5,-6
